VDR inhibitor: blocks the human vitamin D receptor; Potency, µM, inactives show max response, negative = inhibition, actives largely listed as inhibitors; VDR-SRC2-3 peptide fluorescence polarization, 2 h; P11473; hit rate 0.93% among 400,000; active means well fitted inhibition curve with a large enough effect; inconclusive means small, poorly fitted or top-dose-only effect, or another doubt; inactive means no such curve, though single readings can be large or run the other way; further: series mostly up to about 120 µM
Target sequence (P11473 whole entry, looked up): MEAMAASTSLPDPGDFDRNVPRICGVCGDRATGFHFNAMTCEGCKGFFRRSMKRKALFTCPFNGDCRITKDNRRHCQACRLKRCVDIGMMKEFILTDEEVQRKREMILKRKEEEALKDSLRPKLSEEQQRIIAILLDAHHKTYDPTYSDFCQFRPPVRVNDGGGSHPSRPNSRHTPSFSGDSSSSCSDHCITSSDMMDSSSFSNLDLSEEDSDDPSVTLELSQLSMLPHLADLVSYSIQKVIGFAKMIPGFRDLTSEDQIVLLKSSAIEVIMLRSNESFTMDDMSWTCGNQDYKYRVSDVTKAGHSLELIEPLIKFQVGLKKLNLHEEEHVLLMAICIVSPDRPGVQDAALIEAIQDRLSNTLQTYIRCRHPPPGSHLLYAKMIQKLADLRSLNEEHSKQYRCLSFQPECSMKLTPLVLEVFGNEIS
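Fluorescence polarization assay of small-molecule disruption of VDR binding to coregulator peptide SRC2-3. Compounds and controls pin-transferred, then read after 2 h incubation at ambient room temperature.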
* marks the source's active call; other numbers are inactive results; ? = inconclusive; & = joins results of further samples. On the % scale 0 is the no-effect control and ±100 the full control effect; potency means the concentration at half of the fitted maximal effect. An excerpt; count on the stated rates, not on these rows.

SMILES | VDR inhibitor
CCNC(=O)Nc1nc2ccccc2s1 | -0.2%
COc1ccc(-c2nc(SCC(=O)Nc3ccc4c(c3)OCO4)c(-c3ccc(F)cc3)[nH]2)cc1OC | 0.2%
CC(=O)C1=C(O)C(=O)N(c2ccc(O)cc2)C1c1cccc([N+](=O)[O-])c1 (configuration not stated) | ?
Clc1ccc(C2=CSC3=NCCN23)cc1Cl | 16.2%
CCOC(=O)c1[nH]c(C)c(CCC(=O)Nc2ccccc2C(=O)OC)c1C | 5.0%
O=C(CCc1nc2ccccc2c(=O)[nH]1)Nc1ccc(Cl)c(Cl)c1 | 3.6%
O=C(COc1ccc(Br)cc1Br)NC(=S)N1CCCc2ccccc21 | 16.1%
CC(=O)Nc1ccc(NC(=O)COC(=O)/C=C/c2ccc3c(c2)OCO3)cc1 | 11.6%
NC(=O)c1ccc(NC(=O)COC(=O)C2CCN(S(=O)(=O)c3cccs3)CC2)cc1 | -11.8%
CCN1/C(=C/c2cc[n+](C)cc2)C=Cc2cc(C)ccc21 | 5.9%
Cc1ccc(-n2nnnc2-c2cccs2)cc1[N+](=O)[O-] | 15.2%
Cc1nnc2c3ccccc3c(-c3ccccc3)nn12 | -12.2%
Cc1nnc(NC(=O)CSc2nccn2C)s1 | 6.4%
N#CCn1cnc2c(oc3ccccc32)c1=O | -16.4%
CC(=O)NC1=NN(C(C)=O)C(C)(c2ccccn2)S1 (configuration not stated) | -8.6%
CCCCCn1c(=O)[nH]c2cc(C(=O)N3CCN(c4ccccc4F)CC3)ccc2c1=O | -5.7%&-5.0%
O=C(OCc1nc2ccccc2s1)c1ccc(Br)s1 | -10.6%
Cc1cccc(S(=O)C(c2ccccc2)c2ccccc2)c1 (configuration not stated) | 5.5%
COc1ccccc1CC(=O)NCc1nn(-c2ccccc2)nc1C | -12.6%
COc1ccccc1CNC(=O)COc1ccc(S(=O)(=O)N2CCCC2)cc1 | 0.4%
COC(=O)c1ccccc1NC(=O)c1cncc(Br)c1 | 20.2%
Cc1ccc(C)c(OCCn2cc(/C=C(\C#N)C(=O)NCC3CCCO3)c3ccccc32)c1 (configuration not stated) | -17.8%
COc1cccc(S(=O)(=O)Nc2cccnc2)c1 | 10.8%
COc1ccc(/C=C(/NC(=O)c2ccccc2)C(=O)N/N=C/c2ccncc2)cc1 | -19.2%
CN(C)c1ccc(CNC(=O)c2cnc3sc(N4CCCC4)nn3c2=O)cc1 | 8.1%
SMILES | VDR inhibitor
O=C(O)CCC(=O)N1CCc2cc(S(=O)(=O)NC3CCCc4ccccc43)ccc21 (configuration not stated) | -8.9%
N=c1n(CCO)c2ccccc2n1CCN1CCCCC1 | -2.9%
COc1ccc2c(c1)c1c(c(=O)n(Cc3ccccc3)c(=O)n1CC(=O)Nc1c(C)cccc1C)n2C | 14.0%
Cc1ccc(CNC(=O)c2ccccc2NC(=O)CN2CCN(C)CC2)cc1 | -20.0%
Cc1ccc(C(=O)NC2CC2)cc1S(=O)(=O)N1CCOCC1 | -14.2%
CN(Cc1cccnc1)C(=O)c1cc(COc2ccc3ncccc3c2)on1 | 7.5%
O=C(CN1C(=O)S/C(=C\c2cccs2)C1=O)Nc1ccc(C(=O)O)c(O)c1 | -17.8%
Cc1nccnc1Sc1ccccc1 | 15.6%
CNC1=C(N(C(C)=O)c2ccc(Br)cc2)C(=O)c2ccccc2C1=O | -4.1%
O=C1NCCN(CC2CCN(CCC3CCCC3)CC2)C1=O | -19.9%
Cc1c(C)n(Cc2ccccc2)c2ccc(C(=O)N3CCN(c4ccc(F)cc4)CC3)cc12 | 15.7%
COc1cc(OC)c(OC)cc1CCC(C)NCCC(c1ccccc1)c1ccccc1 (configuration not stated) | -13.4%
Cc1cccc(NC(=O)NCCOCCn2c(=O)oc3ccccc32)c1C | 13.2%
Cc1cc(C)n(-c2c(F)c(F)c(CN3CCOCC3)c(F)c2F)n1 | -14.7%
O=C(COc1ccc(Br)cc1)NCCCNC(=O)c1ccncc1 | 20.6%
Cn1c(Sc2ccc(C(=O)O)cc2[N+](=O)[O-])nnc1-c1ccccc1 | 79.4µM*
Cc1cc(N2CCN(C)CC2)nc(=S)[nH]1 | -5.8%
Cc1cc(OCC(=O)N2CCc3ccccc3C2)c2c(-c3ccccc3)cc(=O)oc2c1 | -6.8%
COC(=O)c1ccc(C2/C(=C(\O)c3ccc4c(c3)OCCO4)C(=O)C(=O)N2CCCN(C)C)cc1 (configuration not stated) | 5.6%
Cc1ccc(N(C(=O)c2csnn2)C(C(=O)NC2CCCC2)c2cccnc2)c(C)c1 (configuration not stated) | 18.9%
O=[N+]([O-])c1ccc2[nH]c(O)c(N=Nc3ccc(F)cc3)c2c1 | ?
COc1ccc(OC(=O)COc2ccc(Cl)cc2)cc1 | -19.1%
CC(C)C(=O)NC(=S)Nc1ccc(S(=O)(=O)N2CCN(C)CC2)cc1 | -7.9%
CCCN(CC1CC1)C(=O)CCc1nnc(C(OC)c2ccccc2)o1 (configuration not stated) | -10.9%
CC(c1ccccc1)n1c(Cn2ncc3ccccc3c2=O)n[nH]c1=S (configuration not stated) | 2.0%

Quoted from the listing.
COC(=O)c1ccccc1NC(=O)c1cncc(Br)c1 in VDR inhibitor is listed with 20.2%
CCN1/C(=C/c2cc[n+](C)cc2)C=Cc2cc(C)ccc21 in VDR inhibitor is listed with 5.9%
COc1ccc2c(c1)c1c(c(=O)n(Cc3ccccc3)c(=O)n1CC(=O)Nc1c(C)cccc1C)n2C in VDR inhibitor is listed with 14.0%

(listing goes on)
SMILES | VDR inhibitor
O=C(O)CCc1nc(-c2ccccc2)c(-c2ccccc2)o1 | -18.8%&-7.3%
COc1cc(/C=N/NC(N)=O)cc([N+](=O)[O-])c1O | 5.4%
CS(=O)(=O)N1CCN(c2ccccc2NC(=S)NC(=O)c2ccco2)CC1 | 0.2%
O=C(COC(=O)CNC(=O)C1CCCCC1)NC1CCCC1 | 7.9%
CC(C)Cc1ccc(CN2CCCC(NC(=O)CCN3CCCO3)C2)cc1 (configuration not stated) | -4.9%
COc1ccc(Cl)cc1NC(=O)CSc1nnc(CNC(=O)c2cccs2)o1 | 5.9%
Cc1ccc(NC(=O)N2Cc3ccccc3CC2C(=O)NC(C)(C)C)cc1 (configuration not stated) | 9.3%
Cc1ccc(-c2noc(CSc3nnc(-c4ccccc4)n3C)n2)cc1 | -0.7%
COc1ccc(S(N)(=O)=O)cc1C(=O)N1CCCC1 | 7.6%
COC(=O)c1ccc(/C=N/NC(=O)CNc2cccc(C)c2)cc1 | -6.9%
Cc1ccc(C)c(NC(=S)N2CCC(NC(=O)c3ccc(F)cc3)CC2)c1 | -4.3%
O=C(c1ccc(Cl)cc1Cl)N1CCc2ccccc21 | -13.7%
O=S(=O)(CC(O)COc1ccccc1Cl)c1ccccc1 (configuration not stated) | 5.3%
COC(=O)c1c(NC(=O)CN2CCN(c3ccccc3OC)CC2)c2cc(C)ccc2n1C | 8.3%
Cn1c(=O)c(=O)n(C)c2cc(S(=O)(=O)N3CCN(c4ccccc4F)CC3)ccc21 | -10.9%&-2.7%
CCn1c(SCC(=O)N(C)CC(=O)Nc2cccc(OC)c2)nnc1-c1ccco1 | -8.2%
C[C@@H](CC#N)CN1CC[C@H](C(C)(C)C)CCC1=O | -5.2%
O=C(Nc1nncs1)c1cccc(S(=O)(=O)N2CCOCC2)c1 | -2.8%
O=C(CSc1ccccc1)Nc1ccc(S(=O)(=O)NCC2CCCO2)cc1 (configuration not stated) | -0.7%
CN(C)C(=O)c1ccc(-c2nc(NCc3cccnc3)c3ccccc3n2)cc1 | -7.6%
Cc1cc(=O)n2c(n1)NC(=NCc1ccccc1)NC2c1ccccc1 (configuration not stated) | -12.0%
CCCn1c(=O)[nH]c2nc(-c3ccc(S(=O)(=O)O)cc3)[nH]c2c1=O | 4.0%&-7.8%
CCN(CC)S(=O)(=O)c1ccc(C(C)NC(=O)Cc2c[nH]c3ccccc23)cc1 (configuration not stated) | 2.5%
CCCCC(=O)N1CCc2cc(OC)c(OC)cc2C1COc1ccc(C(=O)OCC)cc1 (configuration not stated) | 9.1%
CCCCn1c(=O)nc2n(-c3ccccc3)c3ccccc3cc-2c1=O | -12.8%

Sorted by length of the SMILES (low to high): some entries from above
SMILES | VDR inhibitor
Cc1ccc(-c2noc(CSc3nnc(-c4ccccc4)n3C)n2)cc1 | -0.7%
CN(C)C(=O)c1ccc(-c2nc(NCc3cccnc3)c3ccccc3n2)cc1 | -7.6%
CCN(CC)S(=O)(=O)c1ccc(C(C)NC(=O)Cc2c[nH]c3ccccc23)cc1 (configuration not stated) | 2.5%

Going on with the list:
SMILES | VDR inhibitor
Nc1cc(N)c2c(c1)C(=O)c1ccccc1-2 | -9.8%
Cc1cccc(NCC(=O)c2c(N)n(C)c(=O)n(C)c2=O)c1C | -14.9%
COc1ccc(CN(C(=O)c2ccc(C)cc2)c2cccc(N)c2)cc1 | -20.3%
CCCC(=O)Nc1nnc(SCC(=O)Nc2nc(C)cs2)s1 | 8.2%
COc1ccc(-c2nnc3sc(-c4ccccc4OC)nn23)cc1 | 1.1%
Cc1c(/C=N/NC(=O)c2cccnc2)c2ccccc2n1Cc1ccccc1 | -1.1%
COc1ccc(N2C(=O)[C@H]3CCC=C[C@H]3[C@@H]2c2ccccc2Br)cc1 | ?
CC(=NCCCN(C)C)C1=C(O)c2ccccc2C1=O | -9.9%
C1CCC2(CC1)C1=C(CCCC1)Nc1nnnn12 | 8.1%
NS(=O)(=O)CCCc1ccccc1 | -1.1%
Fc1ccc(-c2nc3ccccc3c3nc4ccccc4n23)cc1 | -15.3%
CCCCn1c(SCC(=O)Nc2nnc(C)s2)nnc1-c1ccncc1 | 15.0%
CC1CC(=O)c2cn3c(nc2C1)nc1ccccc13 (configuration not stated) | 13.4%
Cc1cc(C)nc(SCc2cc(=O)c(OC(=O)c3ccc(S(=O)(=O)N(C)C)cc3)co2)n1 | ?
Cc1nc(NC(N)=S)sc1C(=O)Nc1ccccc1 | 16.6%
CNc1nc(-c2ccc(OC)cc2)c(-c2ccc(OC)cc2)s1 | -4.1%
O=C(N/N=C\c1cccc([N+](=O)[O-])c1O)C1COc2ccccc2O1 (configuration not stated) | 5.4%
CC1CCN(c2ccccc2NC(=O)c2ccc(F)cc2)CC1 | -3.0%
Cc1cc(C)c(S(=O)(=O)NCC2CCC(C(=O)NCc3ccccn3)CC2)c(C)c1 (configuration not stated) | 14.9%
CC(=O)c1cccc(NC2c3ncccc3C(=O)N2Cc2ccco2)c1 (configuration not stated) | -5.1%
CC(C)c1ccc(-c2nn(-c3ccccc3)cc2C(=O)NCC2CCCO2)cc1 (configuration not stated) | 16.3%
CCn1nc(C(=O)Nc2ccc(Cl)c(S(=O)(=O)N3CCOCC3)c2)c2ccccc2c1=O | -1.5%
O=C(CCCCCN1C(=O)c2ccccc2C1=O)Nc1ccccc1F | 5.2%
O=C(Nc1ccc2c(c1)OCCO2)c1cccc(Br)c1 | 3.6%
CN(CCC#N)S(=O)(=O)c1ccc2c(c1)c(=O)n(C)c(=O)n2C | -10.7%

Printed as active in VDR inhibitor, among the entries above:
SMILES | VDR inhibitor
Cn1c(Sc2ccc(C(=O)O)cc2[N+](=O)[O-])nnc1-c1ccccc1 | 79.4µM*

Looked up by structure from above:
SMILES | VDR inhibitor
COc1ccc(-c2nnc3sc(-c4ccccc4OC)nn23)cc1 | 1.1%
CCn1nc(C(=O)Nc2ccc(Cl)c(S(=O)(=O)N3CCOCC3)c2)c2ccccc2c1=O | -1.5%
CN(CCC#N)S(=O)(=O)c1ccc2c(c1)c(=O)n(C)c(=O)n2C | -10.7%
CC(C)c1ccc(-c2nn(-c3ccccc3)cc2C(=O)NCC2CCCO2)cc1 (configuration not stated) | 16.3%

Later entries:
SMILES | VDR inhibitor
NC(=O)c1nc(-c2ccco2)nc2c1[nH]c(=O)n2-c1ccc(Cl)c(Cl)c1 | 0.6%
CCCCCCn1c(N(CC)CC)nc2c1c(=O)[nH]c(=O)n2C | 5.9%
N#Cc1ccc(CSc2ncnc3c2cnn3Cc2ccccc2)cc1 | -0.9%
CC1=NNC(=O)C1CC(=O)N/N=C/c1cccs1 (configuration not stated) | 9.6%
CCCCCCCCCCCC(=O)OCC(O)C1OCC(O)C1O (configuration not stated) | 4.9%
Cc1cccc(NC2=NC(=S)N(CC#N)C23CCCCC3)c1 | 7.6%
NC(=O)C1(NC2CCCCC2)CCN(Cc2ccccc2)CC1 | -6.9%
C=CCCOc1ccccc1C(N)=O | 15.5%
CNC(=O)N1CCC(C(=O)c2c(C)c(C)c(C)c(C)c2C)CC1 | -7.1%
COc1ccc(-c2nc(C#N)c(NCC3CCCO3)o2)cc1 (configuration not stated) | 0.1%
COc1ccc2c(C)c(Cc3ccccc3)c(=O)oc2c1OC | -2.2%
C#CCOCCOCCOCCNc1nc(N2CCN(C(=O)[C@H](CCCCN)n3cc(C(N)[C@H](C)CC)nn3)CC2)nc(N2CCN(C(=O)[C@H](CCC(=O)O)n3cc(C(N)[C@H](C)CC)nn3)CC2)n1 (some centres not stated) | -18.1%
O=C(Nc1cccnc1)c1cc(-c2ccc(Cl)c(Cl)c2)on1 | -5.6%
COc1cccc(Nc2ncc3nc(C)c(=O)n(CCc4ccccc4)c3n2)c1 | 7.9%
CCC(CC)C(=O)Nc1c(C(=O)N2CCN(c3ccccc3F)CC2)oc2ccccc12 | -1.7%
COc1ccc([N+](=O)[O-])c(O)c1C(C)=O | 2.3%
CCOc1ccc2oc(=O)cc(CN3CCN(C(=O)c4cccc(F)c4)CC3)c2c1 | -17.1%
Cc1ccc(NC(=O)NN2CCN(C)CC2)cc1C | -1.5%
CCN(CC)C(=O)c1sc2[nH]c(=S)n(-c3ccccc3)c(=O)c2c1C | 0.1%
Cc1cc(C)cc(N(C(=O)c2ccccn2)C(C(=O)NC2CCCCC2)c2ccncc2)c1 (configuration not stated) | 14.3%
COC(=O)COC(=O)c1ccc(Oc2nc(OC)nc(N(C)C)n2)cc1 | -2.6%
CCCN1CNc2c(c(=O)[nH]c(=S)n2CCc2cccc(Cl)c2)C1 | -17.5%
Cc1nc2cnc(Oc3ccccc3)nc2n(CCc2ccccc2)c1=O | 1.9%
Cc1cc(C(=O)Nc2c(C)cccc2C)n(-c2ccccc2)n1 | -19.2%&-4.9%

Screening results deposited in PubChem by National Center for Advancing Translational Sciences (NCATS).
